Env fusion inh: inhibitors of HIV-1 Env-driven cell-cell fusion, primary screen, HeLa-JRFL effector, CEM21 target cells, luciferase; inhibition, % at 12.3 µM; 360,000 tested, 1.1% active; AID 651610, 2012;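 active = mean replicate inhibition score of at least 50 and every replicate individually at or above 50; inconclusive = only one of the two criteria met; inactive = mean below 50 and not all replicates reaching 50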;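 note: 0% = plate neutral controls and 100% = maraviroc near 300 nM; one replicate is shown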
The depositor's hits bear a star; [ ] = remark or other dose.

O=C(Nc1cc(F)ccc1F)N[C@H]1CC[C@@H](CCn2cc(C3CC3)nn2)O[C@@H]1CO was read as Env fusion inh -1[16.7 µM].
`CCCNC(=O)Nc1ccc2c(c1)OC[C@@H](C)N(C(C)=O)C[C@H](C)[C@@H](OC)CN(C)C2=O` gave Env fusion inh 0[16.7 µM].
Clc1cc(Cl)cc(CN2CCN(c3ncc(Cc4ccccc4)cn3)CC2)c1 was read as Env fusion inh 21.
For CC(C)NC(=O)Nc1ccc2c(c1)C(=O)N([C@@H](C)CO)C[C@H](C)[C@@H](CN(C)C(=O)c1ccncc1)OCCCC[C@H](C)O2 the results were Env fusion inh 27[16.7 µM].
Screening O=C(C[C@H]1C[C@@H]2c3cc(NS(=O)(=O)c4ccc(F)cc4)ccc3O[C@@H]2[C@H](CO)O1)NCc1cccnc1 returned Env fusion inh -5[16.7 µM].
Screening CN1CCN(C(=O)C[C@@H]2CC[C@H]3[C@@H](COC[C@@H](O)CN3C(=O)Nc3ccc4c(c3)OCO4)O2)CC1 returned Env fusion inh -12[16.7 µM].
`O=C(Nc1cc(F)ccc1F)N[C@H]1CC[C@H](CC(=O)N2CCc3ccccc3C2)O[C@@H]1CO` gave Env fusion inh 21[16.7 µM].
Screening C[C@@H]1CN([C@H](C)CO)C(=O)CCCn2nncc2CO[C@@H]1CN(C)S(=O)(=O)c1ccc(Oc2ccccc2)nc1 returned Env fusion inh -2[16.7 µM].
`CCC(=O)Nc1ccc2c(c1)OC[C@H](C)N(Cc1nccs1)C[C@H](C)[C@@H](OC)CN(C)C2=O` gave Env fusion inh 20[16.7 µM].
`CN1CCN(C(=O)C[C@H]2CC[C@H]3[C@@H](COC[C@@H](O)CN3C(=O)Cc3ccccc3)O2)CC1` gave Env fusion inh 8[16.7 µM].
COC(=O)CC#C[C@H](C)[C@@H](NS(C)(=O)=O)C1CCCCC1 was read as Env fusion inh -7.
For CN(C)Cc1c(C(C)(C)O)[nH]c2ccccc12 the results were Env fusion inh 7.
`O=C(NCC[C@@H]1CC[C@@H](NC(=O)C2CCOCC2)[C@@H](CO)O1)c1cc(Cl)cc(Cl)c1` gave Env fusion inh -7[16.7 µM].
Screening C[C@@H]1CCCCO[C@H](CN(C)C(=O)CCC(F)(F)F)[C@@H](C)CN([C@H](C)CO)C(=O)c2cc(NS(=O)(=O)c3ccc(Cl)cc3)ccc2O1 returned Env fusion inh -25[16.7 µM].
`CO[C@H]1CC[C@@H]2CCOc3ccc(C#N)cc3C(=O)N(C)C[C@H](OC)[C@@H](C)C(=O)N(C)C[C@@H]1O2` gave Env fusion inh -3[16.7 µM].
For CO[C@@H]1CN(C)C(=O)c2cc(NC(C)=O)ccc2OC[C@@H](C)N(S(=O)(=O)c2cn(C)cn2)C[C@@H]1C the results were Env fusion inh -5[16.7 µM].
For CO[C@H]1CN(C)C(=O)c2cc(NC(=O)c3cc(C)on3)ccc2OC[C@H](C)N(CC2CC2)C[C@@H]1C the results were Env fusion inh -2[16.7 µM].
C[C@H](CO)N1C[C@H](C)[C@@H](CN(C)C)Oc2ccc(NC(=O)Nc3ccccc3)cc2C1=O was read as Env fusion inh 7[16.7 µM].
`C[C@H](CO)N1C[C@H](C)[C@@H](CN(C)Cc2ccc(Cl)c(Cl)c2)Oc2ccc(NC(=O)CCN3CCOCC3)cc2C1=O` gave Env fusion inh -5[16.7 µM].
`CN(C)CC(=O)Nc1ccc2c(c1)[C@H]1C[C@H](CC(=O)N3CCCCC3)O[C@@H](CO)[C@H]1O2` gave Env fusion inh 1[16.7 µM].
For Cc1noc(C)c1NC(=O)Nc1cccc2c1O[C@H](CN(C)Cc1ccncc1)[C@@H](C)CN([C@@H](C)CO)C2=O the results were Env fusion inh 10[16.7 µM].
Screening Cc1noc(C)c1S(=O)(=O)Nc1ccc2c(c1)C(=O)N([C@@H](C)CO)C[C@@H](C)[C@H](CN(C)S(=O)(=O)c1cccs1)OCCCC[C@H](C)O2 returned Env fusion inh -32[16.7 µM].
`C[C@@H]1CN([C@@H](C)CO)C(=O)c2cc(NS(=O)(=O)c3ccccc3)ccc2O[C@@H]1CN(C)C(=O)Nc1ccc(F)cc1` gave Env fusion inh -3[16.7 µM].
`CO[C@H]1CN(C)C(=O)c2ccc(NC(=O)c3ccccc3F)cc2OC[C@H](C)N(C)C[C@H]1C` gave Env fusion inh -3[16.7 µM].
CO[C@@H]1CN(C)C(=O)c2cc(NC(=O)C3CC3)ccc2OC[C@H](C)N(C(=O)c2ccccc2F)C[C@H]1C was read as Env fusion inh 2[16.7 µM].
For CN1C(=O)c2cc(NC(=O)c3cnccn3)ccc2OC[C@@H]2O[C@H](CC(=O)NCC3CCCCC3)CC[C@H]21 the results were Env fusion inh 19[16.7 µM].
For COCC(=O)Nc1ccc2c(c1)C(=O)N(C)C[C@@H](OC)[C@@H](C)CN[C@@H](C)CO2 the results were Env fusion inh -16[16.7 µM].
C[C@@H]1CN([C@@H](C)CO)C(=O)c2cc(NC(=O)CCN3CCOCC3)ccc2O[C@@H]1CN(C)Cc1ccc(-c2ccccc2)cc1 was read as Env fusion inh 13[16.7 µM].
Screening CN1C[C@@H](O)COC[C@@H]2O[C@H](CC(=O)NC3CCC3)CC[C@H]21 returned Env fusion inh -1[16.7 µM].
`CO[C@@H]1CN(C)C(=O)c2cc(NS(=O)(=O)c3cn(C)cn3)ccc2OC[C@H](C)N(C)C[C@@H]1C` gave Env fusion inh -4[16.7 µM].

Next section (three carried over from the part before).
C[C@@H]1CN([C@@H](C)CO)C(=O)c2cc(NC(=O)CCN3CCOCC3)ccc2O[C@@H]1CN(C)Cc1ccc(-c2ccccc2)cc1 was read as Env fusion inh 13[16.7 µM].
Screening CN1C[C@@H](O)COC[C@@H]2O[C@H](CC(=O)NC3CCC3)CC[C@H]21 returned Env fusion inh -1[16.7 µM].
`CO[C@@H]1CN(C)C(=O)c2cc(NS(=O)(=O)c3cn(C)cn3)ccc2OC[C@H](C)N(C)C[C@@H]1C` gave Env fusion inh -4[16.7 µM].
CN1C(=O)c2cc(NC(=O)C3CCOCC3)ccc2OC[C@@H]2O[C@@H](CC(=O)NCc3ccc4c(c3)OCO4)CC[C@@H]21 was read as Env fusion inh 18[16.7 µM].
COc1cccc(CNC(=O)[C@H]2CCCN2C(=O)[C@H]2CCCN2C(=O)OC(C)(C)C)c1 was read as Env fusion inh 3.
For CC(C)NC(=O)N(C)C[C@H]1OCCCC[C@H](C)Oc2ccc(NC(=O)C3CCCCC3)cc2C(=O)N([C@H](C)CO)C[C@@H]1C the results were Env fusion inh 5[16.7 µM].
O=C(C[C@H]1CC[C@@H](NS(=O)(=O)c2ccc(F)cc2)[C@H](CO)O1)NCc1ccc(Cl)c(Cl)c1 was read as Env fusion inh -5[16.7 µM].
`CN(C)c1ccc2c(c1)[C@H]1C[C@H](CC(=O)NCc3ccccn3)O[C@H](CO)[C@H]1O2` gave Env fusion inh 1[16.7 µM].
COc1cc(OC)c(CNS(=O)(=O)c2ccc(Br)cc2)c(OC)c1 was read as Env fusion inh -12[16.7 µM].
CC(C)(C)n1nc(C2CC2)c(Br)c1NC(=O)c1ccccc1F was read as Env fusion inh 27.
For CC(=O)N1[C@H](C(=O)Nc2ccccc2)[C@@H](CO)[C@@H]2Cn3c(ccc(C4=CCCC4)c3=O)[C@@H]21 the results were Env fusion inh 4[16.7 µM].
`C[C@@H]1CCCCO[C@@H](CN(C)CC2CC2)[C@H](C)CN([C@H](C)CO)C(=O)c2cc(NS(C)(=O)=O)ccc2O1` gave Env fusion inh -4[16.7 µM].
Screening COC(=O)[C@]12C[C@H](CC(=O)N3CCCC3)C(=O)N(Cc3ccc4c(c3)OCO4)C1=C[C@H](C(C)(C)C)O[C@@H]2C returned Env fusion inh inconclusive.

An excerpt from above in order of count of non-hydrogen atoms, descending.
CN1C(=O)c2cc(NC(=O)C3CCOCC3)ccc2OC[C@@H]2O[C@@H](CC(=O)NCc3ccc4c(c3)OCO4)CC[C@@H]21 was read as Env fusion inh 18[16.7 µM].
`C[C@@H]1CCCCO[C@@H](CN(C)CC2CC2)[C@H](C)CN([C@H](C)CO)C(=O)c2cc(NS(C)(=O)=O)ccc2O1` gave Env fusion inh -4[16.7 µM].
COc1cc(OC)c(CNS(=O)(=O)c2ccc(Br)cc2)c(OC)c1 was read as Env fusion inh -12[16.7 µM].

Following part:
`C[C@@H]1CCCCO[C@@H](CN(C)Cc2ccncc2)[C@@H](C)CN([C@@H](C)CO)C(=O)c2cc(NC(=O)Cc3ccccc3)ccc2O1` gave Env fusion inh 11[16.7 µM].
CCCC(=O)Nc1ccc2c(c1)C(=O)N(C)C[C@H](OC)[C@H](C)CN(CC1CCCC1)[C@H](C)CO2 was read as Env fusion inh -2[16.7 µM].
CC(C)NC(=O)Nc1ccc2c(c1)C(=O)N([C@H](C)CO)C[C@H](C)[C@H](CN(C)C(=O)Nc1cccc3ccccc13)O2 was read as Env fusion inh -7[16.7 µM].
`COC(=O)C[C@H]1C[C@H]2c3cc(NC(=O)c4ccc5c(c4)OCO5)ccc3O[C@H]2[C@@H](CO)O1` gave Env fusion inh -8[16.7 µM].
Screening COC(=O)C1=C(C)N(Cc2ccccc2C(F)(F)F)C(=NCc2ccc3c(c2)OCO3)NC1c1cccc(C(F)(F)F)c1 (stereo not drawn) returned Env fusion inh -6.
Screening CC(C)(C)S(=O)N1C[C@@H]2CC(=O)C=C2[C@H]1CCO (stereo partly drawn) returned Env fusion inh -6.
Screening CO[C@@H]1CN(C)C(=O)c2ccc(NS(=O)(=O)c3cccc(Cl)c3)cc2OC[C@H](C)NC[C@H]1C returned Env fusion inh -7[16.7 µM].
Screening C[C@@H]1CN([C@@H](C)CO)C(=O)c2c(c3ccccc3n2C)-c2ccccc2CO[C@H]1CN(C)C(=O)Nc1ccc(-c2ccccc2)cc1 returned Env fusion inh 23[16.7 µM].
For O=C(C[C@@H]1CC[C@@H]2[C@H](COC[C@H](O)CN2Cc2cccc(-c3ccncc3)c2)O1)N1CCOCC1 the results were Env fusion inh -18[16.7 µM].
Screening O=C(C[C@H]1CC[C@@H]2NC[C@@H](O)COC[C@H]2O1)Nc1ccc(-c2ccccc2)cc1 returned Env fusion inh -7[16.7 µM].
`C[C@@H]1CN([C@@H](C)CO)S(=O)(=O)c2ccc(-c3ccccc3)cc2O[C@@H]1CN(C)C(=O)c1ccc2c(c1)OCO2` gave Env fusion inh 25[16.7 µM].
COc1cccc(NC(=O)N2C[C@@H](O)COC[C@@H]3O[C@@H](CC(=O)NC4Cc5ccccc5C4)CC[C@H]32)c1 was read as Env fusion inh -10[16.7 µM].
Cc1noc(C)c1NC(=O)N(C)C[C@H]1Oc2ccc(NC(=O)CCC(F)(F)F)cc2C(=O)N([C@@H](C)CO)C[C@@H]1C was read as Env fusion inh -17[16.7 µM].
Screening CO[C@H]1CN(C)C(=O)c2cc(NS(=O)(=O)CC(F)(F)F)ccc2OC[C@H](C)N(C(=O)NC(C)C)C[C@H]1C returned Env fusion inh -298[16.7 µM].
Screening CC(C)NC(=O)Nc1ccc2c(c1)C(=O)N([C@@H](C)CO)C[C@H](C)[C@@H](CN(C)C(=O)Nc1ccccc1)OCCCC[C@H](C)O2 returned Env fusion inh -22[16.7 µM].
O=C(C[C@H]1C[C@@H]2c3cc(NC(=O)Nc4ccccc4F)ccc3O[C@@H]2[C@H](CO)O1)NC1CCCCC1 was read as Env fusion inh -3[16.7 µM].
CNC(=O)C[C@H]1CC[C@H]2[C@@H](COC[C@H](O)CN2S(=O)(=O)c2cccc(Cl)c2)O1 was read as Env fusion inh -12[16.7 µM].
Screening C[C@H](CO)N1C[C@H](C)[C@@H](CN(C)S(=O)(=O)CC(F)(F)F)OCc2ccccc2-c2ccccc2C1=O returned Env fusion inh -3[16.7 µM].
COc1ccc2c3c([nH]c2c1)[C@H](CO)N(C(=O)Nc1cccc(F)c1)CC31CN(S(=O)(=O)c2cccc(C)c2)C1 was read as Env fusion inh 75*[16.7 µM].
Screening Cc1noc(C)c1S(=O)(=O)Nc1ccc2c(c1)CC(=O)N([C@@H](C)CO)C[C@@H](C)[C@@H](CN(C)C(=O)Nc1ccccc1)O2 returned Env fusion inh -8[16.7 µM].
For C[C@@H]1CN([C@@H](C)CO)C(=O)c2cccc(NC(=O)C3CCOCC3)c2O[C@H]1CN(C)Cc1ccc2c(c1)OCO2 the results were Env fusion inh 6[16.7 µM].
For CC(=O)C1=C(C)N(Cc2ccc(Br)cc2)C(=S)NC1c1cccc(Br)c1 (stereo not drawn) the results were Env fusion inh inconclusive.
For CO[C@@H](C(=O)N(C)C[C@@H]1OCc2ccccc2-c2c(n(C)c3ccccc23)C(=O)N([C@H](C)CO)C[C@H]1C)c1ccccc1 the results were Env fusion inh -39[16.7 µM].
For CCCNC(=O)Nc1ccc2c(c1)C(=O)N(C)C[C@H](OC)[C@@H](C)CN(C(=O)CC)[C@@H](C)CO2 the results were Env fusion inh -6[16.7 µM].
`O=C(NC1CCCC1)[C@@H]1[C@@H](CO)[C@@H]2Cn3c(ccc(C4=CCCC4)c3=O)[C@H]1N2C(=O)c1ccccc1` gave Env fusion inh 0[16.7 µM].
`CC=Cc1ccc2n(c1=O)C[C@@H]1[C@@H](CO)[C@H](C(=O)N(C)C)[C@H]2N1CCc1ccccc1` (mixture of isomers) gave Env fusion inh -5[16.7 µM].
`CO[C@H]1CN(C)C(=O)c2cc(NC(=O)NC(C)C)ccc2OC[C@H](C)N(Cc2cncnc2)C[C@@H]1C` gave Env fusion inh -10[16.7 µM].
Screening C[C@H](CO)N1C[C@H](C)[C@H](CN(C)C(=O)N[C@H](C)c2ccccc2)OCc2ccccc2-c2ccccc2C1=O returned Env fusion inh 23[16.7 µM].
For COc1ccc(C#Cc2ccc3c(c2)O[C@@H](CN(C)C(=O)CN2CCOCC2)[C@H](C)CN([C@@H](C)CO)S3(=O)=O)cc1 the results were Env fusion inh 22[16.7 µM].

Bioassay records: PubChem BioAssay, Broad Institute

Only part of the results is shown; the hit share may differ from the screen's.
